# Bioassay records as filed in PubChem BioAssay.
# Cruzain inh noDet = qHTS Assay for Promiscuous and Specific Inhibitors of Cruzain (without detergent); purified cruzain, Z-FR-AMC fluorescence, no detergent; Potency, µM, without a hit: max response, negative = inhibition, usual class: inhibitors; 2.3% of 200,000 active; AID 1476, 2009; active = well fitted curve in the direction sought with a large enough effect; inconclusive = small, poorly fitted or top-dose-only effect, or another doubt; inactive = no such curve, though single readings can be large; an effect the other way counts as inactive or inconclusive;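 note: plate controls were enzyme without inhibitor for no effect and buffer without enzyme for full effect; nearly all actives have a fitted effect of over 40% in size; top concentration of the series not given in the record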
# Target sequence (P25779 123-467 limits assumed): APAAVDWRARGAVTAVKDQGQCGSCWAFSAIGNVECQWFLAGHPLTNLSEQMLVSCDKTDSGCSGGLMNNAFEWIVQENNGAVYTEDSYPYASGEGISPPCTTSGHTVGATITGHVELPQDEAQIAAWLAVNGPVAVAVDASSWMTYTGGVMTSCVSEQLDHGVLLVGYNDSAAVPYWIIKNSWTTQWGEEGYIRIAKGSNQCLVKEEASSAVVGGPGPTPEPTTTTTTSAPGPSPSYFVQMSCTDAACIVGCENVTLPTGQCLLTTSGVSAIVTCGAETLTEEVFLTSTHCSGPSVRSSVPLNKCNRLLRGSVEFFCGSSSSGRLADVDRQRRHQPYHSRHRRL
#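 Purified cruzain at 1.5 nM, pre-incubated 15 min with compound at room temperature in 100 mM sodium acetate pH 5.5, 5 mM DTT, 0.00005% Triton X-100. Reaction started with 2 uM Z-FR-AMC; AMC fluorescence increase over 60 s gives rate.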
# LASV entry inh = qHTS for Inhibitors of binding or entry into cells for Lassa Virus | AID 540256, 2011 | Lassa virus pseudotype entry inhibition, cell reporter; control for the full effect not named in the record | Potency, µM (titrated, usually from 37.9 µM), for inactives: top-dose activity change, negative = inhibition, actives largely listed as inhibitors | 1.2% of 300,000 active; active means well fitted inhibition curve with a large enough effect; inconclusive means small, poorly fitted or top-dose-only effect, or effect the other way; inactive means flat fitted curve, though single readings scatter; tested in HEK293 cells; note: % is set by controls: 0 for no effect and ±100 for the full control effect; nearly all actives have a fitted effect of over 50% in size; luciferase read-out
# SARS PLP yeast = qHTS of Yeast-based Assay for SARS-CoV PLP; Potency, µM (top dose mostly 32.9 µM), without a hit: at the top dose activity, positive = growth rescue; S. cerevisiae expressing SARS-CoV PLpro, growth rescue; control for the full effect not named in the record; 0.19% of 330,000 active; note: 0% is about no effect; nearly all actives have a fitted effect of over 55% in size; growth read by luminescence after 48 h
# 2A StopGo = High Throughput Screening for Foot and Mouth Disease Virus Antivirals; Potency, µM (top dose mostly 57.9 µM), for inactives: top-dose signal change, negative = less light; human cells with a luciferase reporter of 2A StopGo recoding; control for the full effect not named in the record; 1.2% of 410,000 active; active = well fitted falling curve with a large enough effect; inconclusive = small, poorly fitted or top-dose-only effect; inactive = no such curve, though single readings can be large or run the other way; tested in HEK293T cells; note: % is set by controls: 0 for no effect and ±100 for the full control effect; nearly all actives have a fitted effect of over 45% in size; luciferase light after 4 h
# RE007 growth inh = qHTS Assay for Inhibitors of the HIV-1 protein Vpr. Potency, µM (doses to about 92.2 µM), inactives show at the top dose activity change, negative = less growth. S. pombe RE007 Vpr strain, BacTiter-Glo ATP luminescence, 24 h; control for the full effect not named in the record. 0.21% of 360,000 active. AID 651644, 2012; active = well fitted falling curve with a large enough effect; inconclusive = small, poorly fitted or top-dose-only effect; inactive = no such curve, though single readings can be large or run the other way;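 note: % is set by controls: 0 for no effect and ±100 for the full control effect; nearly all actives have a fitted effect of over 50% in size; the assay follows cell death caused by Vpr and the record does not say whether a fall means rescue or toxicity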
#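 Fission yeast RE007 carrying one integrated HIV-1 vpr copy, seeded at OD 0.01 in PMG+AL medium with 23 nL pinned compound. Grown 24 h at 30 degrees; viability read by BacTiter-Glo luminescence after 5 min.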
# Cruzain Triton = qHTS Assay for Promiscuous and Specific Inhibitors of Cruzain (with detergent); Cruzipain (Trypanosoma cruzi), P25779; Potency, µM, for the others: max response, negative = inhibition, usual class: inhibitors; 0.43% of 200,000 active; AID 1478, 2009; purified cruzain, Z-FR-AMC fluorescence, 0.01% Triton; active = well fitted curve in the direction sought with a large enough effect; inconclusive = small, poorly fitted or top-dose-only effect, or another doubt; inactive = no such curve, though single readings can be large; an effect the other way counts as inactive or inconclusive;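 note: plate controls were neutral wells for no effect and buffer without enzyme for full effect; nearly all actives have a fitted effect of over 40% in size; top concentration of the series not given in the record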
#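 Read-out: AMC fluorescence (360 nm excitation, 450 nm emission), four reads over 2 min, first-to-third difference used. Conditions: cruzain 1.5 nM, Z-FR-AMC 2 uM, pH 5.5 acetate, 5 mM DTT, 0.01% Triton X-100.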
# NS1 inh = qHTS Assay for Inhibitors of Influenza NS1 Protein Function; S. cerevisiae slowed by influenza A NS1, growth recovery by OD600; Potency, µM (doses to about 46.1 µM), without a hit: at the highest dose activity, positive = more growth; 0.4% of 270,000 active; note: actives are rising curves; nearly all actives have a fitted effect of over 50% in size
#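 OD600 was taken as the measure of yeast growth restored by compound in an NS1-expressing S. cerevisiae strain. Cells had been washed out of glucose medium and diluted 1:100 into galactose -URA medium, pH 6.0.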
# MARV entry inh = qHTS for inhibitors of binding or entry into cells for Marburg Virus; Marburg virus pseudotyped entry inhibition, cell reporter; control for the full effect not named in the record; about a third of the inactives were read at about 46 µM; Potency, µM (series often up to 37.8 µM), without a hit: at the top dose activity change, negative = inhibition, actives largely listed as inhibitors; 1.8% of 300,000 active; AID 540276, 2011; active = well fitted inhibition curve with a large enough effect; inconclusive = small, poorly fitted or top-dose-only effect, or effect the other way; inactive = flat fitted curve, though single readings scatter; tested in HEK293 cells; about a fifth of its hits are not listed in these tables; note: % is set by controls: 0 for no effect and ±100 for the full control effect; luciferase read-out
# * hit, by the source's call; ? = inconclusive; . = no result given; [ ] = another dose, or the depositor's remark. Unless noted, calls come from the whole dose curve; as a rule, active means well fitted rising curve with a large enough effect; inconclusive means small, poorly fitted or top-dose-only effect; inactive means no such curve, though single readings can be large or run the other way. Potency is the fitted concentration of half-maximal effect.
no.	Compound	Cruzain inh noDet	LASV entry inh	SARS PLP yeast	2A StopGo
1	COc1cccc(CC(=O)OC(C)C(=O)Nc2ccc(Cl)cn2)c1 (stereo not drawn)	.	6%[46.1 µM]	-1%	-11%
2	COc1cccc(-n2c(SCC(=O)Nc3ccc4c(c3)CCC4)nc3ccccc3c2=O)c1	?	?	7%	-15%
3	COC(CNC(=O)c1ccc2c(c1)ncn2-c1cccc(F)c1)OC	.	-11%	-2%	-6%
4	C=CCN(CC=C)C(=O)c1ccccc1NC(=O)c1ccccc1C	14%	-1%	0%	-21%
5	COCCn1c(SCc2cccc([N+](=O)[O-])c2)nc2ccccc2c1=O	.	?	-3%	?
6	C/C=C/C(=O)NCCc1ccc(OC)c(OC)c1	.	4%	1%	-3%
7	COc1ccc(CNC(=O)Cc2coc3ccc(C(C)C)cc23)cc1	7%	-14%[46.1 µM]	.	-20%
8	COc1ccc(C(CC(=O)Nc2nccs2)C(C)C)cc1 (stereo not drawn)	.	-16%	0%	-14%
9	CNCCCCOc1ccc(C(C)(C)C)cc1Cl	.	-30%	0%	?
10	COc1ccc(-n2nnc3c(SCC(=O)OCc4ccccc4)ncnc32)cc1	-8%	4%	-3%	-29%
11	CCn1cc2c(c1-c1cccc(C)c1)c(=O)n(C)c(=O)n2C	-7%	-14%	8%	-7%
12	CCOc1ccccc1NC(=O)CSC1=C(C#N)C(c2ccco2)C(C(=O)Nc2nc3ccccc3s2)=C(C)N1 (stereo not drawn)	7.9µM*	6%	8%	-7%

no.	RE007 growth inh	Cruzain Triton	NS1 inh	MARV entry inh
1	18%	.	.	-11%
2	31%	-1.2%	?	?
3	19%	.	.	6%
4	-2%	4.7%	6%	-7%
5	4%	.	-9%	?
6	4%	.	-1%	11%[46.1 µM]
7	.	-10%	.	-29%[46.1 µM]
8	5%	.	-3%	?
9	-5%	.	3%	?
10	25%	0.2%	1%	6%
11	2%	1.1%	-81%	-4%
12	5%	-8.6%	14%	10%

# Entries of single compounds from above.
# Listed for COc1ccc(C(CC(=O)Nc2nccs2)C(C)C)cc1 (stereo not drawn) : Cruzain inh noDet: .; LASV entry inh: -16%; SARS PLP yeast: 0%; 2A StopGo: -14%; RE007 growth inh: 5%; Cruzain Triton: .; NS1 inh: -3%; MARV entry inh: ?
# Listed for C=CCN(CC=C)C(=O)c1ccccc1NC(=O)c1ccccc1C : Cruzain inh noDet: 14%; LASV entry inh: -1%; SARS PLP yeast: 0%; 2A StopGo: -21%; RE007 growth inh: -2%; Cruzain Triton: 4.7%; NS1 inh: 6%; MARV entry inh: -7%

# The list goes on:
no.	Compound	Cruzain inh noDet	LASV entry inh	SARS PLP yeast	2A StopGo
13	Cc1ccccc1NC(=O)CSc1nc2n(n1)CCCCC2	9%	-3%	-11%	-9%
14	COc1ccc(/C=C/c2nc(-c3ccccc3)cc(=O)[nH]2)cc1	.	-23%[46.1 µM]	0%	-4%
15	Cc1csc(SCC(=O)NC(=O)NC(C)C)n1	.	.	0%	14%
16	S=C(NCc1ccc(Cl)cc1)NCc1ccccn1	.	.	0%	22%
17	COc1ccc(NC(=O)CSC2=NCCN2)cc1	.	.	1%	?
18	COc1cc(SC)ccc1C(=O)NCCOc1ccc(F)cc1	-6%	?	-9%	14%
19	Cc1ccc(C(=O)CC(C(=O)O)n2cncn2)cc1 (stereo not drawn)	.	2%	7%	-3%
20	COc1ccc(S(=O)(=O)N(CC(=O)NCc2ccccc2)c2ccc(C)cc2)cc1OC	27%	26%[46.1 µM]	.	18µM*
21	Cc1cc(N2CCC(C)CC2)nc2cccc(O)c12	?	.	-9%	-17%
22	COc1ccc(CCNC(=O)CSc2nc(O)c(CC(C)C)c(=O)[nH]2)cc1OC	-4%	1%	7%	-12%
23	CCOC(=O)c1c(NC(=O)C2CCCN(S(=O)(=O)c3ccccc3)C2)sc2c1CCCC2 (stereo not drawn)	?	?	7%	-25%
24	COc1ccc(CCNS(=O)(=O)c2cccc(C)c2)cc1OC	-2%	-15%	-6%	23%

no.	RE007 growth inh	Cruzain Triton	NS1 inh	MARV entry inh
13	-7%	1.9%	16%	7%
14	-20%	.	-9%	?
15	1%	.	.	2%[46.1 µM]
16	-9%	.	-2%	.
17	-13%	.	.	?
18	-17%	-4.5%	-20%	-6%
19	5%	.	8%	18%
20	.	-2.8%	.	.
21	-10%	-17%	-17%	0%
22	1%	2.4%	3%	?
23	1%	-2.9%	10%	?
24	7%	10%	-4%	-1%

# Part of the list above, as labelled records:
21. Cc1cc(N2CCC(C)CC2)nc2cccc(O)c12
  Cruzain inh noDet: ?
  LASV entry inh: .
  SARS PLP yeast: -9%
  2A StopGo: -17%
  RE007 growth inh: -10%
  Cruzain Triton: -17%
  NS1 inh: -17%
  MARV entry inh: 0%
17. COc1ccc(NC(=O)CSC2=NCCN2)cc1
  Cruzain inh noDet: .
  LASV entry inh: .
  SARS PLP yeast: 1%
  2A StopGo: ?
  RE007 growth inh: -13%
  Cruzain Triton: .
  NS1 inh: .
  MARV entry inh: ?

# Next part
no.	Compound	Cruzain inh noDet	LASV entry inh	SARS PLP yeast	2A StopGo
25	O=C(C(=O)N1CCc2ccccc2C1)N1CCc2ccccc2C1	0%	1%	-11%	.
26	O=C1CC2(CC(c3ccc(Cl)cc3)=NO2)C(=O)N1c1ccccc1 (stereo not drawn)	.	17%	0%	-15%
27	CCOn1c(=O)c(-c2ccc(OC)c(OC)c2)[n+]([O-])c2ccccc21	-11%	-4%	2%	-21%
28	COc1cccc2c(=O)cc(C)n(CC(=O)Nc3ccc(C)c(C)c3)c12	16%	-17%	7%	?
29	Cc1ccc(S(=O)(=O)N2CCN(C(=O)COC(=O)COc3ccc(Cl)c(C)c3)CC2)c(C)c1	.	9%	.	-1%
30	COc1ccc2[nH]c(C)cc(=O)c2c1	1%	-2%	0%	-6%
31	O=C(O)c1cc(-c2ccc(N3CCOCC3)cc2)nn1-c1ccc(F)cc1F	6%	11%[46.1 µM]	-3%	-17%
32	CCC(=O)Nc1cccc(-c2cn3ccccc3n2)c1	1%	19%	7%	15%
33	CC(=O)N1CC(=O)Nc2ccc(Cl)cc2C1c1ccccc1 (stereo not drawn)	.	-3%[46.1 µM]	3%	-16%
34	NC1=NC(=O)/C(=C/c2ccccc2OS(=O)(=O)c2ccccc2)S1	?	-15%	18%	-11%
35	CC(C)C(=O)Nc1ccc(N2CCN(c3ccc(F)cc3)CC2)cc1	.	16%[46.1 µM]	0%	-7%
36	CC(C)NC(=O)N1c2ccccc2Sc2ccccc21	.	23%	1%	-13%

no.	RE007 growth inh	Cruzain Triton	NS1 inh	MARV entry inh
25	.	-3.0%	5%	2%
26	13%	.	0%	-1%[46.1 µM]
27	-26%	1.0%	-5%	2%[46.1 µM]
28	10%	2.3%	-50%	?
29	2%	.	.	-6%
30	11%	-2.7%	5%	-6%
31	10%	-2.1%	10%	0%[46.1 µM]
32	-1%	-1.2%	-6%	?
33	1%	.	1%	16%[46.1 µM]
34	-8%	-8.3%	7%	4%
35	4%	.	.	9%[46.1 µM]
36	-8%	.	5%	?

# (more compounds)
no.	Compound	Cruzain inh noDet	LASV entry inh	SARS PLP yeast	2A StopGo
37	O=C(COC(=O)c1ccccc1Nc1ccc(SC(F)F)cc1)NC1CC1	0%	-1%	-33%	3%
38	COc1ccc(NC(=O)CSc2nc3ccccc3n2CC(=O)N(C)C2CCCCC2)cc1	8%	-20%[46.1 µM]	.	1%
39	COc1ccc(C(=O)Cn2nnc(-c3ccccc3-n3cnnn3)n2)cc1	-6%	-20%	2%	19%
40	COc1cc(NC(=S)N2CCN(c3ccccn3)CC2)cc(OC)c1OC	.	-2%	1%	9%
41	Cc1ccc(/C=C/C(=O)Nc2ncc(C)s2)o1	?	-2%	-23%	9%
42	COCCNC(=O)c1ccccc1NC(=O)c1ccccc1N(C)S(=O)(=O)c1ccccc1	1%	5%	2%	-8%
43	COCCNC(=O)/C(C#N)=C/c1cccc(OCc2ccccc2)c1	.	-21%[46.1 µM]	-4%	0%
44	O=C(Cc1ccc(NC(=O)N2CCSc3ncccc32)cc1)NCc1ccccc1	-3%	-1%[46.1 µM]	.	-9%
45	COc1cc([N+](=O)[O-])ccc1NC(=O)NCCCN1CCCC1=O	.	29%[46.1 µM]	-1%	-7%
46	O=C(COC(=O)c1ccccc1O)Nc1ccc(S(=O)(=O)N2CCCCC2)cc1	.	.	-9%	?
47	Cc1ccc(NC(=O)c2ccc3c(c2)C(=O)N(Cc2cccnc2)C3=O)c(C)c1	.	9%	1%	1%
48	O=C(NCc1ccco1)c1csc(Nc2ccccc2Cl)n1	-13%	?	-14%	0%
49	CC1Cc2ccccc2N1C(=O)CSc1nncn1C (stereo not drawn)	.	11%[46.1 µM]	1%	-12%
50	CCOc1ccc(OCC)c(NC(=O)C2CCN(S(=O)(=O)c3cn(C)cn3)CC2)c1	-5%	-3%[46.1 µM]	.	-5%
51	COc1cc(/C=C/C(=O)N2c3ccccc3Sc3ccc(C(F)(F)F)cc32)cc(OC)c1OC	4%	1%	11%	-17%

no.	RE007 growth inh	Cruzain Triton	NS1 inh	MARV entry inh
37	-17%	-6.4%	-27%	?
38	.	-4.7%	.	.
39	4%	-6.4%	-5%	-1%
40	12%	.	-3%	2%
41	-10%	-4.5%	11%	14%
42	-18%	0.1%	-2%	-1%
43	6%	.	.	?
44	.	-8.8%	.	.
45	-13%	.	10%	-12%[46.1 µM]
46	15%	.	.	-11%[46.1 µM]
47	8%	.	1%	-26%[46.1 µM]
48	4%	-6.7%	-39%	-24%
49	3%	.	.	-2%[46.1 µM]
50	.	0.1%	.	.
51	-3%	-5.2%	19%	?

# Rows are unselected; overall some 4.5% were active at least once.
